Assay outcomes (PubChem BioAssay)
HNF4A DNA FP: change in binding of human HNF4A to DNA, primary screen, biochemical, fluorescence polarization, FITC-DNA; 1 h; activity change, % at 10 µM; hit rate 0.3% among 360,000; in the data active = activity change above about 30%, passing the limit was not always enough;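 also: controls were the assay level and a saturating level of protein; the project sought stronger binding though the title names inhibitors; some compounds called inactive have numbers as strong as hits; positive values seem to mean higher polarization but the record does not say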
Target sequence (P41235 whole entry, looked up): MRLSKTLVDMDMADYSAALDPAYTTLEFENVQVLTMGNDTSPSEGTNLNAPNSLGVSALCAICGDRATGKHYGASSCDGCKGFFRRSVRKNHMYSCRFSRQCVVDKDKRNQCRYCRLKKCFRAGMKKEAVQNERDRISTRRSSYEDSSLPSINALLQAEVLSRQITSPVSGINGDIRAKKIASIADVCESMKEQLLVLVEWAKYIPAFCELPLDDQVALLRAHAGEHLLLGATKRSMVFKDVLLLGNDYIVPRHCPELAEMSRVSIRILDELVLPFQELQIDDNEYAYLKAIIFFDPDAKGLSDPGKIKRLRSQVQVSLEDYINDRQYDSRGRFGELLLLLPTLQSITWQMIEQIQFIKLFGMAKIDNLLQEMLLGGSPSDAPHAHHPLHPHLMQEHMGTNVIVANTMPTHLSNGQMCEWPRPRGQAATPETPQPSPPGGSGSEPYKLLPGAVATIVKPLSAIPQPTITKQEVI
Vif A3G: inhibitors of Vif binding to APOBEC3G peptide, primary screen, biochemical, TR-FRET, GST-Vif 1-94, biotin-A3G peptide, dose response retest (AID 1117319); TR-FRET GST-Vif / biotin-A3G peptide binding; higher % means a stronger effect; test concentration not given here; strong numbers were not always called active; inhibition, %; hits with a dose series show IC50 in µM; hit rate 0.57% among 260,000;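 active = above the screen mean plus three standard deviations and confirmed in dose response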;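 also: Vif residues 1-94 fused to GST binding biotinylated APOBEC3G peptide 110-148; 0% = full assay without inhibitor and 100% = GST in place of GST-Vif; retest series ran down from 100 µM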
Active calls of the source: *.

The line under a structure holds: HNF4A DNA FP	Vif A3G
O=C(Nc1ccn(CCCNC2CCN(Cc3ccccc3)CC2)c(=O)n1)OCc1ccccc1
→ -1.7	1.4%
Cn1c(SCC(=O)NC2CCCCC2)nc2c(c1=O)SCC2
→ -1.4	-2.8%
C[C@@H]1CN([C@@H](C)CO)C(=O)c2cc(C#Cc3ccccc3)cnc2O[C@@H]1CN(C)Cc1ccccn1
→ 5.7	6.1%
CC1CCC2(CC1)NC(=O)N(CC(=O)Nc1ccc(N3CCCCC3)cc1)C2=O (stereo not given)
→ 2.5	-0.9%
Cc1ccc(CNS(=O)(=O)c2ccc(-n3cccn3)cc2)cc1
→ -4.2	3.2%
Cc1cn([C@H]2C[C@H](O)[C@@H](CNCc3ccc(C#CCCO)cc3)O2)c(=O)[nH]c1=O
→ -0.8	3.6%
CC(C)CC1C(=O)N(Cc2cn(CCC3OCCCO3)nn2)CCS(=O)(=O)N1Cc1ccc(-c2ccc(F)cc2)cc1 (stereo not given)
→ -3.9	-0.4%
C[C@@H]1CN([C@H](C)CO)S(=O)(=O)c2ccc(Br)cc2O[C@@H]1CN(C)C(=O)Nc1ccc(C(F)(F)F)cc1
→ -4.4	3.7%
COc1cccc(-c2n[nH]nc2C2=CC(=O)C[C@H](c3ccc(F)cc3)C2)c1
→ -4.5	5.2%
FC(F)(F)C(F)(F)c1nc2nc(Cl)c(Cl)nc2[nH]1
→ -4.0	-1.9%
COc1cc(C(=O)N(Cc2ccccc2)c2cccc(C)c2)ccc1OCC(=O)N1CCOCC1
→ 1.6	0.2%
O=[N+]([O-])c1ccc(N2CCN(Cc3ccccc3)CC2)c2c1no[n+]2[O-]
→ -12.0	2.4%
C#CCN(C[C@@H]1[C@@H](OC(=O)NCc2ccccc2)[C@@H](OC(=O)NCc2ccccc2)Cn2c(=O)n(CCCCCC)c(=O)n21)S(=O)(=O)c1ccc(C)cc1
→ -3.7	-5.4%
CCC(CC)c1nnc(NC(=O)Cc2c[nH]c3ccccc23)s1
→ 0.6	-3.8%
CC(=O)c1ccc(NC(=O)c2cn(C)c(=O)c3ccccc23)cc1
→ 2.0	0.2%
Cc1ccc2ccccc2c1NC(=O)CNCc1ccccc1
→ 0.5	0.1%
Cc1ccsc1CN(C)CC(=O)N(C)CC(=O)Nc1c(Cl)cccc1Cl
→ 1.5	0.1%
COC(=O)c1ccc(CSc2ccccc2NC(=S)Nc2cccc(C(F)(F)F)c2)o1
→ 3.3	-0.2%
O=C(/C=C/c1ccccc1Cl)OCC(=O)N1CCc2ccccc21
→ 1.2	-5.3%
N#CC(c1ccccc1)C(CC(=O)c1ccccc1)c1ccccc1 (stereo not given)
→ -3.5	5.2%
Cn1c(SCC(=O)NC2CCCCC2)nnc1C(F)(F)F
→ 1.1	-5.1%
CCOc1ccc(OCC)c(NC(=O)C2C3C=CC(O3)C2C(=O)O)c1 (stereo not given)
→ -4.9	-1.8%
O=C1NN(c2ccccc2)C(=O)C1=Cc1ccccc1
→ 0.6	-11.2%
C#CCN(C[C@H]1[C@H](OC(=O)NCCCCCC)[C@H](OC(=O)NCCCCCC)C[C@H]2C(=O)N(c3ccccc3)C(=O)[C@@H]12)S(=O)(=O)c1ccc(C)cc1
→ -0.9	-8.7%
COC(=O)[C@H]1C[C@H](OC(=O)NCC2CCCCC2)[C@@]2(O)CN(S(=O)(=O)c3ccc(C)cc3)CC2[C@H]1C(=O)OC (stereo not given in full)
→ -1.0	-0.6%
COC(=O)c1ccc(CNC(=O)C2CCC(=O)N(CCc3ccccn3)C2)cc1 (stereo not given)
→ 0.2	7.6%
C[C@H](CO)N1C[C@H](C)[C@@H](CN(C)C(=O)Nc2ccccc2F)Oc2cc(Br)ccc2S1(=O)=O
→ 1.5	1.9%
CC(=O)Nc1ccc(-c2cc(C(=O)O)c3cc4ccccc4cc3n2)cc1
→ -6.7	-5.2%
COCCN(CC(=O)Nc1cccc(C)c1C)C(=O)/C=C/c1ccc2c(c1)OCCO2
→ -1.9	-3.0%
CCOC(=O)N(C)C[C@H]1OCc2cnnn2CCCC(=O)N([C@@H](C)CO)C[C@H]1C
→ 2.5	-4.4%

2 entries picked at random from those above:
The line under a structure holds: HNF4A DNA FP	Vif A3G
C#CCN(C[C@@H]1[C@@H](OC(=O)NCc2ccccc2)[C@@H](OC(=O)NCc2ccccc2)Cn2c(=O)n(CCCCCC)c(=O)n21)S(=O)(=O)c1ccc(C)cc1
→ -3.7	-5.4%
CC(=O)c1ccc(NC(=O)c2cn(C)c(=O)c3ccccc23)cc1
→ 2.0	0.2%

Continuation.
The line under a structure holds: HNF4A DNA FP	Vif A3G
CC(C)N1CC2(CC(c3ccccc3F)=NO2)CN1C(=O)c1ccco1 (stereo not given)
→ -4.9	5.1%
CC1(C)N=C(N)N=C(N)N1c1ccc(OCC(=O)N2CCOCC2)cc1
→ 2.0	-2.7%
CC1=C2C3OC(=O)C(C)C3CCC2(C)C=C(Cl)C1=O (stereo not given)
→ -6.0	-2.3%
C[C@H]1CN([C@@H](C)CO)C(=O)CCCn2nncc2CO[C@@H]1CN(C)Cc1ccc(C(F)(F)F)cc1
→ -1.0	1.0%
Cn1c(=O)n(C)c2cc(NC(=O)c3ccccc3)ccc21
→ 0.5	2.5%
C[C@@H]1CN([C@H](C)CO)C(=O)CCCn2nncc2CO[C@H]1CN(C)S(=O)(=O)c1cccs1
→ -4.3	2.3%
CC(=O)c1c(C)[nH]c(C(=O)NCc2ccc(Cl)cc2)c1C
→ 2.2	1.4%
COCC1CCN(C(=O)c2ccc3oc(CCc4ccccc4)nc3c2)C1 (stereo not given)
→ 0.5	1.9%
CCn1c(SCC(=O)NC2CC2)nc2ccccc21
→ 0.0	-0.7%
COc1ccc(OC)c(C(=O)CCCCC(=O)c2cc(OC)ccc2OC)c1
→ 1.7	-3.7%
CC(=O)Nc1cccc(C(=O)Nc2cc(C(F)(F)F)ccc2-n2cncn2)c1
→ 1.2	-4.4%
C[C@H]1CN([C@@H](C)CO)S(=O)(=O)c2ccc(C#CC(C)(C)O)cc2O[C@H]1CN(C)Cc1ccccc1
→ 3.5	-4.3%
Clc1ccc(Br)c(-c2nc3ccccc3[nH]2)c1
→ -2.1	-20.2%
COc1ccc([C@@H]2C[C@H]3[C@@H](CN2S(=O)(=O)c2ccccc2)C(=O)C[C@@H](c2cccc4ccccc24)N3S(=O)(=O)c2ccc(C)cc2)cc1
→ 1.9	-5.5%
CCOCc1nc2nc(Cl)c(Cl)nc2[nH]1
→ -5.8	2.6%
COc1ccccc1NC(=O)N(C)C[C@@H]1OCc2ccccc2-c2c(n(C)c3ccccc23)C(=O)N([C@H](C)CO)C[C@@H]1C
→ -2.4	-2.8%
COc1ccccc1CC(=O)Nc1cc(C)on1
→ 4.3	7.3%
CCN1CCN(C(=O)c2ccc(CS(=O)(=O)Cc3ccccc3Cl)o2)CC1
→ 3.0	-4.5%
Cc1ccc(CN2CCC[C@]3(N[C@H](c4ccc(C)cc4)[C@@H]4C(=O)N(Cc5ccccc5)C(=O)[C@@H]43)C2=O)cc1
→ -0.6	-3.3%
COc1cc(C(C)=O)ccc1OCC(=O)N1CCCC1c1ccc2c(c1)OCCCO2 (stereo not given)
→ 1.9	-2.3%
Cc1cc(Br)c(NC(=O)CN2C(=O)NC3(CCOc4ccccc43)C2=O)c(Br)c1 (stereo not given)
→ 2.1	5.9%
COc1cccc(-c2ccc3c(c2)O[C@@H](CN(C)C(=O)C2CCOCC2)[C@H](C)CN([C@H](C)CO)S3(=O)=O)c1
→ 0.1	-3.7%
CCOc1cc(N2CCOCC2)c(OCC)cc1NC(=O)COC(=O)c1c(C)noc1C
→ 3.1	11.1%
COc1ccc(-c2csc(Nc3cccc(C)n3)n2)cc1OC
→ 0.7	-8.3%
Cc1ccc([C@H]2C[C@@H](O)[C@H](n3cc(C4CC4)nn3)CN2Cc2cccs2)cc1
→ -2.6	-2.4%
COc1cccc(-c2nc3n(n2)CCc2ccccc2-3)c1
→ -1.1	3.2%
COc1ccccc1S(=O)(=O)N(C)C[C@@H]1OCc2cnnn2CCCC(=O)N([C@H](C)CO)C[C@H]1C
→ -9.7	6.1%
O=C1CSc2ccc(C(=O)N3CCCCC3)cc2N1
→ 2.4	-7.2%
Nc1ccc(C(=O)Nc2ccc(Nc3ccncc3)cc2)c([N+](=O)[O-])c1
→ -0.9	0.8%
CC(NC(=O)COC(=O)C1CCN(c2ccc(C(F)(F)F)cn2)CC1)c1ccccc1 (stereo not given)
→ 0.3	-4.1%

Following part.
SMILES,HNF4A DNA FP,Vif A3G
CCN(CC)CCN=c1c(C)nc(C#N)c(N)n1O,-1.9,1.2%
Cc1ccc2c(c1)c1c3n2CCN(CCC#N)C3CCC1 (stereo not given),3.6,-0.3%
C[C@H]1CCCCO[C@H](CN(C)S(=O)(=O)c2cn(C)cn2)[C@@H](C)CN([C@@H](C)CO)C(=O)c2cc(NS(=O)(=O)c3ccccc3)ccc2O1,-1.2,2.7%
C[C@@H]1CN([C@H](C)CO)C(=O)c2c(c3ccccc3n2C)-c2ccccc2CO[C@@H]1CN(C)C(=O)Nc1ccccc1C(F)(F)F,1.8,-3.3%
COc1ccc(N2C[C@H](CSC)[C@@H](CC(=O)Nc3ccc(Br)cc3)C2=O)cc1,1.4,6.4%
C[C@@H]1CN([C@H](C)CO)C(=O)c2c(c3ccccc3n2C)-c2ccccc2CO[C@@H]1CN(C)Cc1ccc(O)cc1,-3.5,-1.0%
CN(C(=O)NC1CCCCC1)[C@H]1C[C@H]2c3[nH]c4ccccc4c3CCN2C(=O)[C@H]1CO,-1.8,-0.4%
Cc1ccc(CC(C)(O)CC(C)(O)Cc2ccc(C)cc2)cc1 (stereo not given),1.5,0.5%
CC1COCC(C)N1C(=O)c1cccnc1 (stereo not given),3.7,0.3%
C[C@@H]1CN([C@H](C)CO)C(=O)CCCn2cc(nn2)CO[C@H]1CN(C)S(=O)(=O)c1ccc2ccccc2c1,2.5,2.1%
Clc1ccc2nc(C(Cl)(Cl)Cl)[nH]c2c1,-0.4,7.3%
CCN(CC)S(=O)(=O)c1ccc(N2CCOCC2)c(NC(=O)c2nn(C(C)C)c(=O)c3ccccc23)c1,-1.4,4.1%
C[C@@H]1CCCCO[C@@H](CN(C)Cc2ccc(Cl)c(Cl)c2)[C@@H](C)CN([C@H](C)CO)C(=O)c2cc(NC(=O)CCC(F)(F)F)ccc2O1,-12.7,-1.4%
COc1cc(C(=O)COC(=O)c2ccc3c(c2)OCCO3)cc(OC)c1OC,-0.7,4.5%
O=C1OCCC1=COCCCCCOC=C1CCOC1=O,-3.2,-4.0%
COc1ccc(/C=N/NC(=O)c2nnn(-c3nonc3N)c2C)cc1OC,-4.5,-2.1%
O=C1C=C(c2ccccc2Oc2ccccc2)C[C@@H](c2ccc(F)cc2)C1,-1.4,4.6%
NC(=O)CCC(NC(=O)OCc1ccccc1)C(=O)OCC(=O)c1ccccc1 (stereo not given),0.2,-7.7%
CC1(C2CC2)NC(=O)N(CC(=O)Nc2ccc(OC(F)F)cc2)C1=O (stereo not given),-2.0,-4.6%
c1ccc2c(-c3nc4ccccc4[nH]3)cccc2c1,-0.1,-14.4%
Cc1ccc(S(=O)(=O)N2CCCCC2)cc1NCC(=O)Nc1ccc(Br)cc1F,1.7,1.4%
COc1ccc(C(=O)N2CCc3ccccc3C2)cc1S(=O)(=O)N1CCCC1,-2.2,3.5%
CC1=C(C(=O)N(C)C)CC(CC(=O)NCCCN(C)C)C(=O)N1CCC1=CCCCC1 (stereo not given),0.7,3.9%
CCC/C=C/c1ccc(CN2C(C(C)C)C(=O)N(Cc3cn(CC4CCCCC4)nn3)CCS2(=O)=O)cc1 (stereo not given),4.8,7.1%
COc1cc2c(c(Br)c1N)-c1cc(Br)c(N)cc1C2=O,0.5,4.9%
CCOC(=O)[C@@H](NC(=O)CC[C@H]1O[C@@H](n2cc(C)c(=O)[nH]c2=O)C[C@@H]1O)C(C)C,0.2,-3.7%
NC(=S)c1csc(CCNC(=O)c2ccccc2)n1,1.9,2.9%
Cc1ccc(Cc2c(-c3ccccc3)nc3ccc(Br)cn23)cc1,-11.0,-21.5%
O=C(NCc1cc(C(F)(F)F)ccc1Cl)c1cccc2c1C(=O)c1ccc(N3CCC(N4CCCCC4)CC3)cc1S2(=O)=O,139.6*,-2.7%
C[C@H](CO)N1C[C@H](C)[C@@H](CN(C)Cc2ccncc2)OCc2cnnn2CCCC1=O,-3.0,-6.9%
CC1=C(C(=O)N2CCOCC2)CC(CC(=O)NC2CCCCC2)C(=O)N1Cc1ccccc1 (stereo not given),2.7,6.9%
Cc1ccc2c(=O)n3c(nc2c1)C(Cc1ccccc1)NC(=O)c1cccnc1-3 (stereo not given),3.5,-1.4%
Cc1ccc([C@H]2C[C@@H](O)[C@H](n3cc(-c4ccc(F)cc4)nn3)CN2C(=O)C2CCCCC2)cc1,-1.5,-5.5%
COCCn1c(=S)[nH]c2cc(C(=O)NC3CCCCC3C)ccc2c1=O (stereo not given),-1.8,-6.9%

Four entries from above, ordered by the value under Vif A3G, highest first.
SMILES,HNF4A DNA FP,Vif A3G
Cc1ccc(S(=O)(=O)N2CCCCC2)cc1NCC(=O)Nc1ccc(Br)cc1F,1.7,1.4%
Cc1ccc2c(=O)n3c(nc2c1)C(Cc1ccccc1)NC(=O)c1cccnc1-3 (stereo not given),3.5,-1.4%
CCOC(=O)[C@@H](NC(=O)CC[C@H]1O[C@@H](n2cc(C)c(=O)[nH]c2=O)C[C@@H]1O)C(C)C,0.2,-3.7%
C[C@H](CO)N1C[C@H](C)[C@@H](CN(C)Cc2ccncc2)OCc2cnnn2CCCC1=O,-3.0,-6.9%

Some of the compounds tested. The share of hits here may be higher or lower than overall.
